total CFTR: total CFTR protein upregulators, primary screen, cell-based, HeLa F508del-CFTR, immunofluorescence, viability (AID 1224863) | Cystic fibrosis transmembrane conductance regulator (Homo sapiens) | HeLa F508del-CFTR, immunofluorescence total CFTR, 24 h; by the record results were divided by relative cell number; some inactives read as strong as hits | calls, or highest fold increase where a dose series was run | 10,000 compounds, 0.1% hits; in the data nearly all actives have a first-pass fold increase above 1.5; a few of its hits are not listed in these tables;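 note: total CFTR protein by anti-CFTR immunofluorescence in fixed cells; first pass at 25 µM or 10 µg/mL by library and series up to twice that; 1 = untreated cells; first-pass hits also needed half or more of the cells alive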
total CFTR fold 25 µM: recorded beside total CFTR, whose call it bears; fold increase; measured here: primary screen single dose 25 uM; library dosed in µM
total CFTR fold 10 ug/mL: recorded beside total CFTR, whose call it bears; fold increase; measured here: primary screen 10 ug/mL
total CFTR viability 25 µM: further read-out of total CFTR, marked with its call; viability, %; measured here: primary viability 25 uM; library dosed in µM;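 0% = killed and 100% = untreated cells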
total CFTR viability 10 ug/mL: also measured in total CFTR; calls as there; viability, %; measured here: primary viability 10 ug/mL;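 0% = killed and 100% = untreated cells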
An asterisk follows results filed as active; i = inactive; nt = not tested or not shown; & = joins results of further samples.

The opening 6 records (preview)
SMILES | total CFTR | total CFTR fold 10 ug/mL | total CFTR viability 10 ug/mL | others
O=[N+]([O-])c1cc(S(=O)O)ccc1Cl | i | 1.2 | 100
Cc1noc(C)c1S(=O)(=O)Nc1cccc(-c2nnc3n2CCC3)c1 | i | 1 | 99
O=S(=O)(c1ccc(C2CCCCC2)cc1)N(Cc1ccccn1)C1CCSC1 (centres undefined) | i | 0.88 | 79
COCCNC(=O)N1CCN(S(=O)(=O)c2cc(Br)ccc2Br)CC1 | i | 0.86 | 115
Cc1oc(CO)cc1C(=O)OCC(=O)c1c(N)n(C)c(=O)n(C)c1=O | i | 0.99 | 101
CCOC(=O)C1=C(COC(=O)c2cnc(SC)n2-c2ccccc2)NC(=O)NC1C (centres undefined) | i | 1 | 102

Results, from the start:
SMILES | total CFTR | total CFTR fold 10 ug/mL | total CFTR viability 10 ug/mL | others
O=[N+]([O-])c1cc(S(=O)O)ccc1Cl | i | 1.2 | 100
Cc1noc(C)c1S(=O)(=O)Nc1cccc(-c2nnc3n2CCC3)c1 | i | 1 | 99
O=S(=O)(c1ccc(C2CCCCC2)cc1)N(Cc1ccccn1)C1CCSC1 (centres undefined) | i | 0.88 | 79
COCCNC(=O)N1CCN(S(=O)(=O)c2cc(Br)ccc2Br)CC1 | i | 0.86 | 115
Cc1oc(CO)cc1C(=O)OCC(=O)c1c(N)n(C)c(=O)n(C)c1=O | i | 0.99 | 101
CCOC(=O)C1=C(COC(=O)c2cnc(SC)n2-c2ccccc2)NC(=O)NC1C (centres undefined) | i | 1 | 102
Cc1ccc(-c2nc(CSc3nnc(C(C)C)n3C3CC3)no2)cc1 | i | 1.1 | 82
Nc1nc2[nH]cc(CCc3ccc(C(=O)N[C@@H](CCC(=O)O)C(=O)O)cc3)c2c(=O)[nH]1 | i | nt | nt | total CFTR fold 25 µM=0.89&1.1;total CFTR viability 25 µM=68&98
COc1cc(/C=C/C(N)=O)cc(OC)c1OC | i | nt | nt | total CFTR fold 25 µM=1;total CFTR viability 25 µM=95
CC(=O)NS(=O)(=O)c1ccc(NC(=O)c2ccccc2C(=O)O)cc1 | i | nt | nt | total CFTR fold 25 µM=0.96;total CFTR viability 25 µM=109
N#Cc1nc2c(S(=O)(=O)c3ccc(Cl)cc3)c(N)n(Cc3ccc(C(F)(F)F)cc3)c2nc1C#N | i | 0.86 | 87
c1csc(-c2c3c(nc4c2oc2ccccc24)CCCCCCCCCC3)c1 | i | 0.94 | 95
CC1NCCOc2ccccc21 (centres undefined) | i | 0.94 | 103
CC(C)(Oc1ccc(Cl)cc1)C(=O)Nc1cc2c(cc1Cl)OCO2 | i | 1.1 | 106
O=C(/C=C/c1cc(Cl)c2c(c1)OCCO2)c1ccc2c(c1)OCCO2 | i | 1.1 | 77
COc1cc([C@@H]2c3cc4c(cc3[C@@H](O[C@@H]3O[C@@H]5CO[C@@H](c6cccs6)O[C@H]5[C@H](O)[C@H]3O)[C@H]3COC(=O)[C@H]23)OCO4)cc(OC)c1O | i | nt | nt | total CFTR fold 25 µM=1.4;total CFTR viability 25 µM=78
O=S(=O)(c1ccc2ccccc2c1)N1CCN(S(=O)(=O)c2ccccc2Cl)CC1 | i | 1.1 | 94
CC1(C)Cc2cccc(OCC(O)CN3CCN(C(c4ccccc4)c4ccccc4)CC3)c2O1 (centres undefined) | i | 1.1 | 101
Cc1cc2oc(=O)cc(CN(C)Cc3cnn(C)c3)c2cc1C | i | 1.1 | 103
CC1CC(OC(=O)c2ccccc2O)CC(C)(C)C1 (centres undefined) | i | nt | nt | total CFTR fold 25 µM=1.1;total CFTR viability 25 µM=105
CCOc1ccc(CN(C)CN2C(=O)C(=O)N(C(C)C)C2=O)cc1 | i | 1 | 98
CN(C)C(CNC(=O)C1CC=CCC1)c1cccs1 (centres undefined) | i | 0.92 | 87
N#Cc1c(N(C(=O)/C=C/c2ccco2)C(=O)/C=C/c2ccco2)oc(-c2ccco2)c1-c1ccco1 | i | 1.1 | 104
CC(C)N(C(C)C)S(=O)(=O)c1ccc(N2CCOCC2)nc1 | i | 1.1 | 100
O=S(=O)(c1ccc2c(c1)CCC2)N1CCCc2cccc(F)c21 | i | 0.9 | 91
CS(=O)(=O)CCNc1nc(-c2ccccn2)nc2scc(-c3ccccc3)c12 | i | 0.96 | 81
C=CCn1c(SCc2c(C)noc2C)nc2ccc(Cl)cc2c1=O | i | 0.85 | 82
c1ccn2c(CN3CCCCC3)c(C34CC5CC(CC(C5)C3)C4)nc2c1 | i | 1 | 98
O=C1CC2(CCCC2)C(=O)N1CN1CCc2sccc2C1 | i | 1 | 105
NCCc1cnc[nH]1 | i | nt | nt | total CFTR fold 25 µM=1.1;total CFTR viability 25 µM=104
O=C(CCn1cnc2ccsc2c1=O)NC(=O)NC12CC3CC(CC(C3)C1)C2 | i | 0.95 | 113
O=c1[nH]c(/C=C/c2ccc(Cl)c(Cl)c2)nc2sc3c(c12)CCC3 | i | 1.1 | 108
Cc1cn[nH]c1 | i | nt | nt | total CFTR fold 25 µM=1&1.1;total CFTR viability 25 µM=87&111
O=C(NCC(F)(F)F)c1cc(-c2cccs2)on1 | i | 1.1 | 73
O=C(NCCCN1C(=O)NC2(CCCC2)C1=O)C1CCCO1 (centres undefined) | i | 1 | 91
CC1CCCCN1S(=O)(=O)c1ccc(CN)cc1 (centres undefined) | i | 1 | 92
Cc1cc(NS(=O)(=O)c2c(C)c(Cl)cc(C)c2Cl)ccc1-n1cnnn1 | i | 0.91 | 86
O=S1(=O)Cc2c(nc3ccccc3c2-c2ccccc2)-c2cc(Cl)ccc21 | i | 1.1 | 94
C[C@]12C[C@H](O)[C@H]3[C@@H](CCC4=CC(=O)CC[C@@]43C)[C@@H]1CC[C@@H]2C(=O)CO | i | nt | nt | total CFTR fold 25 µM=1;total CFTR viability 25 µM=99
COc1cc(-c2noc(COC(=O)c3ccc4c(c3)OCCO4)n2)ccc1OC(F)F | i | 0.97 | 97
O=S(=O)(Nc1cc2c(cc1Cl)OCO2)c1ccc(Br)s1 | i | 1 | 91
Cc1sc2ncn(CC(=O)N(C)CC(=O)NC(C)(C)C)c(=O)c2c1C | i | 1 | 113
O=P(O)(O)C(O)(Cn1ccnc1)P(=O)(O)O | i | nt | nt | total CFTR fold 25 µM=1.2&1;total CFTR viability 25 µM=86&103
Cc1nn(-c2ccccc2)c(C)c1CN(C)C(=O)c1cnc2sccn2c1=O | i | 0.99 | 83
C=CCN1C(=O)c2ccc(C(=O)OCCO)cc2C1=O | i | 1 | 92
Nc1nc(CSc2nnc(C3CC3)n2-c2ccccc2)nc2ccccc12 | i | 1 | 96
O=C(CN1C(=O)C2C3C=CC(C3)C2C1=O)Nc1ccc(-n2cnnn2)cc1 (centres undefined) | i | 1.2 | 88
Clc1ccc(CSC(Cn2ccnc2)c2ccc(Cl)cc2Cl)cc1 (centres undefined) | i | nt | nt | total CFTR fold 25 µM=0.87;total CFTR viability 25 µM=76
CC[C@H]1OC(=O)[C@H](C)[C@@H](O[C@H]2C[C@@](C)(OC)[C@@H](O)[C@H](C)O2)[C@H](C)[C@@H](O[C@@H]2O[C@H](C)C[C@H](N(C)C)[C@H]2O)[C@](C)(O)C[C@@H](C)C(=O)[C@H](C)[C@@H](O)[C@]1(C)O | i | nt | nt | total CFTR fold 25 µM=1&1.1;total CFTR viability 25 µM=89&110
O=C(NCc1ccccc1)OCCO | i | nt | nt | total CFTR fold 25 µM=0.91;total CFTR viability 25 µM=83
CC(C)c1n[nH]c(=S)n1Cc1ccco1 | i | 0.98 | 93
Cc1c(C(=O)N2CCN(S(=O)(=O)N3CC(C)OC(C)C3)CC2)cnn1C (centres undefined) | i | 0.97 | 96
Cc1nc(N2CCOCC2)[nH]c(=O)c1CCC(=O)N(C)CC(=O)NC(C)(C)C | i | 1.1 | 110
C=CCn1cnn(CN2CCC(c3nc4ccccc4s3)CC2)c1=S | i | 1.1 | 102
O=C(O)CCCCC1CCSS1 (centres undefined) | i | nt | nt | total CFTR fold 25 µM=1;total CFTR viability 25 µM=92
O=C(NC1CCN(C(=O)C2CC2)CC1)C1CC=CCC1 (centres undefined) | i | 0.99 | 108
CCN1C(=O)C(=O)N(Cc2cc(Br)ccc2OC)C1=O | i | 0.99 | 112
C=CCN(Cc1ccc(Cl)s1)C(=O)c1oc2c(c1C)C(=O)CCC2 | i | 0.94 | 84
c1ccc(-c2cc3c(N4CCN(CC5CCCO5)CC4)nc(-c4cccnc4)nc3s2)cc1 (centres undefined) | i | 0.72 | 80
C=CCOc1ccc(/C=c2\sc3nc(=O)c(C)nn3c2=O)cc1 | i | 1.1 | 86

Later entries
SMILES | total CFTR | total CFTR fold 10 ug/mL | total CFTR viability 10 ug/mL | others
O=C(CNC(=O)c1ccco1)NC1CCC2CCCCC2C1 (centres undefined) | i | 1 | 75
Cc1occc1-c1nnc(SCc2csc(-c3ccsc3)n2)o1 | i | 1.1 | 96
Cc1cc(=O)[nH]c(-c2ccncc2)n1 | i | 1.2 | 104
CCN(Cc1ccc(Cl)s1)CN1C(=O)C(=O)N(C2CCCC2)C1=O | i | 1.1 | 101
O=S(=O)(Nc1cc(F)ccc1F)c1ccccc1F | i | 0.98 | 93
CC1CC(C)(C)CC2(C1)NC(=O)N(CC(=O)NC1CCCCCC1)C2=O (centres undefined) | i | 0.89 | 98
O=c1cc(CN2CCCC(C(F)(F)F)C2)c2c(ccc3ccccc32)o1 (centres undefined) | i | 0.93 | 94
CSCc1nnc(SC/C=C/c2ccccc2)o1 | i | 0.97 | 84
COc1cc2c(cc1OC)CN(S(=O)(=O)c1cccc3nsnc13)CC2 | i | 1 | 103
CN(Cc1nc2ccccc2s1)Cn1c(=O)oc2ccccc21 | i | 1.1 | 94
CCN(CC)CCN1C(=O)C(O)=C(C(=O)c2cccs2)C1c1ccc(C(C)C)cc1 (centres undefined) | i | 1.1 | 93
O=[N+]([O-])c1cccc(CSc2nnc3sc4ccccc4n23)c1 | i | 1.1 | 97
CN(Cc1ccc(Br)cc1)c1ccc(S(N)(=O)=O)cn1 | i | 1.1 | 82
CC(Cc1ccco1)NC(=O)C1CCCCC1 (centres undefined) | i | 0.93 | 87
O=C(NCc1cccnc1)NCc1ccc2c(c1)OCO2 | i | 1.1 | 95
COC(=O)C1=C(C)N(C2CC2)C(=O)NC1c1cccc(OC)c1OC (centres undefined) | i | 0.95 | 105
CC(C)N(C)S(=O)(=O)NCc1cn(Cc2ccccc2)nc1-c1ccccc1 | i | 0.93 | 86
OC[C@H]1O[C@H](O[C@]2(CCl)O[C@H](CCl)[C@@H](O)[C@@H]2O)[C@H](O)[C@@H](O)[C@H]1Cl | i | nt | nt | total CFTR fold 25 µM=1.1;total CFTR viability 25 µM=99
CC(C)Sc1n[nH]c(/C=C/c2ccccc2)n1 | i | 0.96 | 79
COc1cc(/C=C/C(=O)NC2=NCCS2)cc2c1OCCO2 | i | 0.91 | 89
COc1ccc(C2CCCN2CN2C(=O)C3CCCCC3C2=O)c(OC)c1 (centres undefined) | i | 1 | 104
CC(OC(=O)C1=NNC(=O)CC1)C(=O)c1ccc(Br)cc1 (centres undefined) | i | 0.98 | 105
COCCSc1ncc(C#N)c(N)n1 | i | 1.1 | 104
Clc1ccc2oc(SCc3csc(-c4ccccc4)n3)nc2c1 | i | 1 | 85

Some of these compounds in order of formula weight, rising.
SMILES | total CFTR | total CFTR fold 10 ug/mL | total CFTR viability 10 ug/mL | others
O=C(NCc1cccnc1)NCc1ccc2c(c1)OCO2 | i | 1.1 | 95
COc1cc(/C=C/C(=O)NC2=NCCS2)cc2c1OCCO2 | i | 0.91 | 89
COC(=O)C1=C(C)N(C2CC2)C(=O)NC1c1cccc(OC)c1OC (centres undefined) | i | 0.95 | 105
CC(OC(=O)C1=NNC(=O)CC1)C(=O)c1ccc(Br)cc1 (centres undefined) | i | 0.98 | 105
CN(Cc1ccc(Br)cc1)c1ccc(S(N)(=O)=O)cn1 | i | 1.1 | 82
Clc1ccc2oc(SCc3csc(-c4ccccc4)n3)nc2c1 | i | 1 | 85
CC(C)N(C)S(=O)(=O)NCc1cn(Cc2ccccc2)nc1-c1ccccc1 | i | 0.93 | 86

Additional structures.
SMILES | total CFTR | total CFTR fold 10 ug/mL | total CFTR viability 10 ug/mL | others
CC(CCc1ccccc1)NCC(O)c1ccc(O)c(C(N)=O)c1 (centres undefined) | i | nt | nt | total CFTR fold 25 µM=1.5;total CFTR viability 25 µM=87
O=C(NCCCN1CCOCC1)C1CCNCC1 | i | 1 | 102
CSc1ncc(Cl)c(C(=O)OC(C)C(=O)c2c[nH]c3ccccc23)n1 (centres undefined) | i | 0.91 | 97
CC(O)CNC(=O)C1CCNCC1 (centres undefined) | i | 1.3 | 102
O=S(=O)(CCN1CCN(S(=O)(=O)c2ccccc2C(F)(F)F)CC1)c1ccc(Br)cc1 | i | 1 | 98
O=C(Cn1cc(Br)c(=O)[nH]c1=O)NCc1ccco1 | i | 0.91 | 90
CCn1cnn(CN2CCN(C(c3ccccc3)c3ccccc3)CC2)c1=S | i | 1 | 105
O=c1[nH]cnc2[nH]ncc12 | i | nt | nt | total CFTR fold 25 µM=1&0.98&1.1;total CFTR viability 25 µM=89&96&101
CCCN(CCC)S(=O)(=O)NCC1COc2ccccc2C1 (centres undefined) | i | 0.91 | 84
CCN(Cc1ccc(Br)s1)S(=O)(=O)c1ccc2c(c1)OCCO2 | i | 1 | 90
CN(CC(=O)NC(C)(C)C)C(=O)c1cc2c(s1)CCCCC2 | i | 0.99 | 77
Cc1ccsc1CN(C)c1ccc(S(C)(=O)=O)cc1S(C)(=O)=O | i | 0.93 | 87

This is a subset, so the mix of outcomes need not match the whole.
